High-throughput results deposited in PubChem BioAssay by PCMD.
Calb biofilm kill: mixture kills Candida albicans biofilm cells. C. albicans biofilm persisters + clotrimazole, fluorescence viability; primary screen in compound mixtures of four per well. inhibition, % at 7.6 µM. actives 0.02% (n = 120,000). AID 1242;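 active means inhibition above 30.3% in the primary screen of four-compound pools, then above 30% when the compound was retested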;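 further: compounds exposed to preformed 24 h biofilms for 48 h; the number belongs to the whole pool; some results filed as inactive read as strong as hits; inactives centre near 12; 0% = biofilm with clotrimazole alone and 100% = kill control; retested singly at about 60 µM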
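Incubation: 24 h biofilm formation, then 48 h compound exposure, 37 °C | Material: C. albicans biofilms | Buffer or medium: RPMI/MOPS medium, pH 7.0 | Measured by: 2-h Alamar Blue fluorescence, 535/590 nm excitation/emission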
Numbers without * were called inactive.

SMILES	Calb biofilm kill
COc1ccccc1/C=N/Nc1nncc2ccccc12	14
Cc1cc(C(=O)N/N=C/c2cc(Br)ccc2OC(=O)c2ccc(Br)cc2)n[nH]1	18
Cc1ccc(S(=O)(=O)Oc2ccc(/C=N/NC(=O)c3nn(C)cc3Cl)cc2)cc1	5
Cc1ccc(S(C)(=O)=NC(=O)NC(=O)c2c(F)cccc2Cl)cc1 (centres undefined)	22
Cc1ccc(Nc2nc(/N=C/NO)n[nH]2)cc1C	6
O=C(CCSCCc1ccccn1)Nc1c(F)c(F)c(F)c(F)c1F	15
Cc1cc(C)c(NC(=O)COc2nncc3ccccc23)c(C)c1	17
Cc1c(C#N)c(O)n(C)c(=O)c1N=Nc1ccc(S(N)(=O)=O)cc1	13
O=C(N/N=C/c1cc(Cl)ccc1O)c1ccccc1Br	15
CC1(C)CC(=O)C=C(N2CCCC2)C1	11
COC(=O)c1cc(C(=O)NCCC(C)C)cc([N+](=O)[O-])c1	15
CCn1ncc(/C=C/C(=O)c2ccccc2)c1C	0
CCOC(=O)CNC(=O)CSc1nc2c(C)cccc2cc1CC	-4
O=C(NCc1ccc2c(c1)OCO2)C1CCCN1S(=O)(=O)c1ccc(Cl)cc1 (centres undefined)	19
Cc1ccc([N+](=O)[O-])cc1NC(=O)C[n+]1ccccc1	7
COC(=O)c1ccc(OCCCCN2CC(C)OC(C)C2)cc1 (centres undefined)	19
COc1ccccc1NC(=O)/C=C/c1ccc2c(c1)OCO2	-9
COc1ccc(-c2ccnc3nc(/N=C/N(C)C)nn23)cc1	12
CCOC(=O)C(CCCCCCP(=O)(c1ccccc1)c1ccccc1)NC(C)=O (centres undefined)	18
Cc1ccc(OCC(=O)NCc2ccccc2)c([N+](=O)[O-])n1	16
CC(CN1CCCCC1)C(=O)NNC(=O)C12CC3CC(CC(C3)C1)C2 (centres undefined)	15
S=C(Nc1ccc2nsnc2c1)N1CCCCCC1	6
O=C(O)C1C2C=CC(C2)C1C(=O)NCc1ccc2c(c1)OCO2 (centres undefined)	4
O=C(O)C1CC=CCC1C(=O)Nc1ccc2c(c1)OCCO2 (centres undefined)	7
Cc1cc(N2C(=O)C3C4C=CC(C4)C3C2=O)ccc1NC(=O)c1cccs1 (centres undefined)	7
O=C(/C=C/c1ccco1)Nc1ccccc1N1CCOCC1	-5
COc1ccc(CCNC(=O)/C=C/c2ccc(OC)c(S(=O)(=O)N3CCOCC3)c2)cc1	12
Cc1sc2nc(CN3CCCCC3)nc(Nc3ccc4c(c3)OCCO4)c2c1C	11
Cc1nc2sc(-c3ccccc3)nn2c(=O)c1Br	17
CC(=O)Nc1cccc(Oc2ccc([N+](=O)[O-])cc2Cl)c1	20
COc1cccc(Nc2nc(N)nc(CCl)n2)c1	15
Cc1c(Cc2ccccc2)c(NCCCO)n2c(nc3ccccc32)c1C#N	11
O=C(C[n+]1cc(-c2ccccc2)n2c1CCCCC2)c1ccc(Br)cc1	9
CCCc1c(C(=O)O)cnn1-c1ccc(Cl)cc1	15
CSc1ccccc1C(=O)Nc1nc2ccccc2c(=O)[nH]1	15
Cc1ccc(CNS(=O)(=O)NCc2ccccc2F)cc1	9
Nc1sc2c([n+]1CCCS(=O)(=O)[O-])CCCC2	9
COc1ccc(C2C(C(=O)C(C)(C)C)=C(O)C(=O)N2Cc2ccccc2)cc1 (centres undefined)	15
O=[N+]([O-])c1ccc(Cl)c(S(=O)(=O)NCC2CCCO2)c1 (centres undefined)	7
Cc1ccccc1Cn1c(C)cc(C)c(C#N)c1=O	8
O=C(Nc1ccc(Cl)cc1)OCc1ccccn1	8
COc1ccc(C(=O)Nc2cnc3sc(C)nn3c2=O)cc1	21
CC(C)(C)OC(=O)N1CCCN(C(=O)Nc2ccccc2)CC1	20
Cc1cc(C(=O)OCC(=O)N2CC(C)OC(C)C2)ccc1[N+](=O)[O-] (centres undefined)	24
O=C(O)c1ccc2c(=O)n(-c3ccc(F)cc3)c(=S)[nH]c2c1	13
CCCc1nnc(NC(=O)c2ccc([N+](=O)[O-])cc2)s1	-11
Nc1nc(Nc2cccc(Cl)c2)nc(NCc2ccco2)c1[N+](=O)[O-]	8
CC(NC(=O)/C=C/c1ccco1)c1nc2ccccc2n1Cc1c(Cl)cccc1Cl (centres undefined)	19
Cc1nc(SCC(=O)Nc2cccnc2Cl)nc(C)c1C	15
Clc1ccc(-c2nnnn2-c2ccc(Cl)cc2)cc1	22
CN(C)c1ccc(/C=N/NC(=O)CCc2nc3ccccc3[nH]2)cc1	15
O=C(Nc1cc(C(F)(F)F)cc(C(F)(F)F)c1)Nc1cnn(-c2ccc([N+](=O)[O-])cc2)c1C(F)(F)F	17
CSc1n[nH]c(/N=C/c2oc(O)c3ccccc23)n1	11
O=C(Nc1ccc(Cc2ccc(NC(=O)C3CC3)cc2)cc1)C1CC1	19
COc1cc(N=Nc2cccc(S(N)(=O)=O)c2)c2ccccc2c1N	2
CC(C)COc1cccc(C(=O)NC(=S)Nc2cccc(NC(=O)c3ccccc3Cl)c2)c1	6
CCCCn1c(C)cc(/C=C(\C#N)C(=O)O)c1C	8
CCCCOc1ccc(NC(=O)C(=O)NCCCn2ccnc2)cc1	4
CC1CC1c1ccc(/C=C(\C#N)C(=O)Nc2ccccc2Cl)o1 (centres undefined)	8
Cc1ccc(N2C(=O)CS(=O)(=O)CC2=O)cc1	0
(more compounds)
SMILES	Calb biofilm kill
CCCOC(=O)c1ccc(Cl)c(NC(=O)c2cccnc2)c1	16
O=C(NCCF)[C@H]1C[C@@H]1[C@H](NP(=O)(c1ccccc1)c1ccccc1)c1ccccc1	14
N#C/C(=C(/O)CCl)c1nc2ccccc2[nH]1	-6
O=C(Cc1ccc2c(c1)OCCO2)N1CCN(S(=O)(=O)c2cccs2)CC1	9
O=C(NNC(=O)c1csc(-c2cnccc2C(F)(F)F)n1)c1ccc(C(F)(F)F)cc1	15
CCOc1ccc(CC2S/C(=N/N=C/c3ccco3)NC2=O)cc1 (centres undefined)	3
CCN(CC)S(=O)(=O)c1ccc(S(=O)(=O)N2CCN(C(=O)c3ccco3)CC2)cc1	16
Cc1cccc(C)c1NC(=O)CSc1nnc(-c2cccnc2)o1	10
CC(C(=O)NN=C(c1ccccc1)c1ccccc1)N1CCOCC1 (centres undefined)	14
CCC(=O)N1CCN(c2ccc(NC(=S)NC(=O)c3cccc([N+](=O)[O-])c3)cc2)CC1	9
Cc1ccc(NC(=S)NCCc2ccc(S(N)(=O)=O)cc2)cc1C	9
CC1(C)CC(NC(=O)C23CCC(C)(C2Br)C3(C)C)CC(C)(C)N1 (centres undefined)	16
CCOc1ccc(-n2c(C)cc(/C=N/N(C)C)c2C)cc1	7
CC(C)Oc1ccc(/C=C/C(=O)NCC2COc3ccccc3O2)cc1 (centres undefined)	21
Cc1ccc(C(=O)NCc2ccccn2)o1	9
O=C(COC(=O)c1ccccc1Br)Nc1ccccc1F	7
O=C(CN1C(=O)CCC1=O)Nc1ccc(Cc2ccc(NC(=O)CN3C(=O)CCC3=O)cc2)cc1	3
Cc1nc2ccccc2c(=O)n1NC(=O)c1cncc(Br)c1	7
O=C(O)c1cnc(-c2ccccc2)nc1C(F)(F)F	13
CC(C)C(=O)N1CCN(c2cc(N3CCN(C)CC3)c(F)cc2[N+](=O)[O-])CC1	12
NC(=S)N/N=C/c1ccc(C(F)(F)F)cc1	9
Cc1ccc(CS(=O)(=O)CCC(=O)O)cc1	18
O=c1[nH]c2ccc(N=Cc3c(O)ccc4cc(Br)ccc34)cc2[nH]1	11
O=C(Nc1cccc(-c2ccccc2)c1)N1CCN(C(=O)Nc2cccc(-c3ccccc3)c2)CC1	19
NS(=O)(=O)c1ccc(NC(=O)COC(=O)C2(c3ccc(F)cc3)CCCC2)cc1	1
Cc1ccc(C(=O)NCC(=O)N/N=C/c2cccs2)cc1[N+](=O)[O-]	15
c1ccc(CSc2nnc3ccc(-c4ccco4)nn23)nc1	17
CC1=C(C)CC2(SC1)C(=O)N(c1ccccc1)N=C2N (centres undefined)	15
Cc1cccc(C)c1NC(=O)C(c1ccc([N+](=O)[O-])cc1)N(C)C(=O)c1ccccn1 (centres undefined)	13
O=C(N/N=C/c1ccccn1)c1[nH]c2ccc([N+](=O)[O-])cc2c1-c1ccccc1	-2
O=C(NCCCn1ccnc1)c1ccc(N2CCCCC2)c([N+](=O)[O-])c1	18
Cc1cc(C(=O)O)ccc1-n1c(C)cc(C=C2C(=O)c3ccccc3C2=O)c1C	-1
CCS(=O)(=O)N1CCC(N2CCC(C)CC2)CC1	20
CCOc1cc(N2CCOCC2)c(OCC)cc1NC(=O)COC(=O)c1cccc2ccccc12	17
Cc1cccc(OCCNc2cc(N3CCN(C)CC3)ccc2[N+](=O)[O-])c1	18
Cc1ccc2c(Cl)cc(Cl)c(OCC(=O)N(C(C)C)C(C)C)c2n1	4
O=C1/C(=C\c2ccccc2Cl)SC(=S)N1CCC(=O)N1CCCc2ccccc21	13
Cc1c(C=O)c2ccccc2n1CC(=O)N1CCc2ccccc2C1	8
CC(=O)c1cccc(N=c2scc(-c3ccc(S(=O)(=O)N4CCOCC4)cc3)n2CCO)c1	-17
CCC(=O)Nc1ccc(Cl)c(NC(=S)NC(C)=O)c1	7

Grouped by structure, the compounds so far with bromine.
SMILES	Calb biofilm kill
Cc1cc(C(=O)N/N=C/c2cc(Br)ccc2OC(=O)c2ccc(Br)cc2)n[nH]1	18
O=C(N/N=C/c1cc(Cl)ccc1O)c1ccccc1Br	15
Cc1nc2sc(-c3ccccc3)nn2c(=O)c1Br	17
O=C(C[n+]1cc(-c2ccccc2)n2c1CCCCC2)c1ccc(Br)cc1	9
CC1(C)CC(NC(=O)C23CCC(C)(C2Br)C3(C)C)CC(C)(C)N1 (centres undefined)	16
O=C(COC(=O)c1ccccc1Br)Nc1ccccc1F	7
Cc1nc2ccccc2c(=O)n1NC(=O)c1cncc(Br)c1	7
O=c1[nH]c2ccc(N=Cc3c(O)ccc4cc(Br)ccc34)cc2[nH]1	11

Seven entries from above, in markdown.
| SMILES | Calb biofilm kill |
| --- | --- |
| CCCCOc1ccc(NC(=O)C(=O)NCCCn2ccnc2)cc1 | 4 |
| CC1CC1c1ccc(/C=C(\C#N)C(=O)Nc2ccccc2Cl)o1 (centres undefined) | 8 |
| Cc1ccc(N2C(=O)CS(=O)(=O)CC2=O)cc1 | 0 |
| CCCOC(=O)c1ccc(Cl)c(NC(=O)c2cccnc2)c1 | 16 |
| O=C(NCCF)[C@H]1C[C@@H]1[C@H](NP(=O)(c1ccccc1)c1ccccc1)c1ccccc1 | 14 |
| N#C/C(=C(/O)CCl)c1nc2ccccc2[nH]1 | -6 |
| O=C(Cc1ccc2c(c1)OCCO2)N1CCN(S(=O)(=O)c2cccs2)CC1 | 9 |

Further compounds.
SMILES	Calb biofilm kill
CCn1ccnc1[C@@H]1C[C@H]2CN(c3ccccc3OC)C(=O)[C@]23CCCN13	9
CC1(C)CC(C)(c2ccc(O)cc2O)N(c2cccc(Cl)c2)C(=S)N1 (centres undefined)	11
Cn1c(=O)c2c(nc(N3CCNCC3)n2Cc2ccccc2Cl)n(C)c1=O	7
Cc1onc(-c2c(Cl)cccc2Cl)c1COC(=O)c1ccc(Cl)cc1[N+](=O)[O-]	15
CCN(CC)C(=O)N1CCN(C(=O)N(CC)CC)CC1	1
Nc1ncnc(SCc2c(F)cccc2Cl)n1	16
CCOc1ccc(CN(C)CCc2ccccn2)cc1	4
COc1cc(/C=N/N2C(=O)c3ccccc3C2=O)ccc1O	11
O=C(Nc1cccc(S(=O)(=O)NC2=NCCC2)c1)C1CCC1	5
CCCCNC(=S)N(C)/N=C/c1c(F)cccc1F	9
CC(C)[C@H]1CC[C@@H](C)C(C(=O)c2ccccc2)C1=O (some centres undefined)	8
CC(C)(C)NC(=O)CN(C(=O)CS(=O)CC(=O)Nc1ccc(F)cc1)c1cccc(F)c1 (centres undefined)	24
NCC(O)CN(c1ccccc1)c1ccccc1 (centres undefined)	2
Cc1ccc(C2=C/C(=C\c3cccnc3)C(=O)O2)cc1	11
Cc1nn(C)c(C(=O)NNC(=S)NC2CCCCC2)c1Cl	11
Clc1ccc(C2CC(c3cccs3)n3ncnc3N2)c(Cl)c1 (centres undefined)	19
S=C1Cc2ccccc2N1	11
COC(=O)CN1C(CN2CCOCC2)=Nc2ccc(Br)cc2C1c1ccccc1 (centres undefined)	7
COC(=O)c1ccc(N=Cc2c(-c3ccccc3)[nH][nH]c2=O)cc1	13
CCc1sc(C(C2C(=O)CC(C)(C)CC2=O)C2C(=O)CC(C)(C)CC2=O)cc1[N+](=O)[O-]	19
Cc1ccc(NC(=O)COC(=O)c2cc(Cl)ccc2Cl)c(Br)c1	13
CC(=O)NC1C(Oc2ccc(C)cc2)OC2COC(c3ccco3)OC2C1O (centres undefined)	19
CCOc1ccc(S(=O)(=O)NCc2ccc(C)cc2)c2cccnc12	12
COc1ccc(CCN2C(=O)CC(N3CCN(C/C=C/c4ccccc4)CC3)C2=O)cc1OC (centres undefined)	9
COc1c(F)c(F)c(C(=O)O)c(Nc2cccc(C)c2)c1F	8
C=CCNC(=O)c1onc(CSc2ccccn2)c1C(=O)NCC=C	8
CC1(C)CC(=O)c2cnc3c(C#N)cnn3c2C1	1
Cc1ccc2sc(NNC(=O)c3ccc4c(c3)OCCO4)nc2c1C	6
O=C(NC(=S)N1CCN(Cc2ccc3c(c2)OCO3)CC1)c1ccc(Cl)cc1	16
CC(C)(C)C(=O)NCCN1C(=O)S/C(=C\c2ccc([N+](=O)[O-])cc2)C1=O	8
CCOc1cc(/C=N/Nc2nc(N3CCCC3)nc(N3CCCC3)n2)ccc1O	15
COc1ccccc1C1CCN(C(=S)Nc2ccc(Br)cc2)CC1	13
Cc1nnn(C23CC4CC(CC(CC(=O)Nc5ccc(C)c(C)c5)(C4)C2)C3)n1	13
N#C/C(=C\Nc1ccccn1)S(=O)(=O)c1ccc(Cl)cc1	36
CNC(=O)c1[nH]cnc1C(=O)Nc1ccc(C)cc1	-7
CCOc1ccc(-n2c(C)nc(O)c2N=Nc2ccccc2)cc1	14
O=C(NCCc1cccc(Cl)c1)c1cccs1	14

Only part of the results is shown; the hit share may differ from the screen's.
